Bioassay records from PubChem BioAssay.
Vif A3G: inhibitors of Vif binding to APOBEC3G peptide, primary screen, biochemical, TR-FRET, GST-Vif 1-94, biotin-A3G peptide, dose response retest (AID 1117319); TR-FRET GST-Vif / biotin-A3G peptide binding; higher % means a stronger effect; test concentration not given here; strong numbers were not always called active; one-dose inhibition, %; IC50 in µM for titrated hits; 260,000 compounds, 0.57% hits;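 active = above the screen mean plus three standard deviations and confirmed in dose response; inconclusive = results disagree or hit not tested in dose response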;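 note: Vif residues 1-94 fused to GST binding biotinylated APOBEC3G peptide 110-148; 0% = full assay without inhibitor and 100% = GST in place of GST-Vif; retest series ran down from 100 µM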
RanGTP-Imp inh: disruptors of Ran-importin-beta complex formation – biochemical, FRET, CFP-Ran, YFP-importin-beta, homogeneous, primary screen; cell-free CFP-Ran/YFP-importin-beta FRET ratio; inhibition, % (no concentration beside the values); 300,000 compounds, 1.1% hits; AID 2216;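 active = most replicates above 15%; inconclusive = exactly half above 15%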;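 note: 0% = DMSO wells and 100% = Ran loaded with GDP instead of GTP; wells of about 40 µL received 100 nL stock; the first replicate is given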
T cruzi inh: blocks replication of Trypanosoma cruzi; AID 1885; T. cruzi beta-gal in NIH3T3, luminescence, 90 h; 300,000 compounds, 1.4% hits; inhibition, % (concentration not given with the values);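 active = mean inhibition across valid replicates above about 55%, limit read from the data; inconclusive = mean below that limit but half or more replicates reach it; inactive = mean below it, under half of replicates reach it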;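 note: signal also drops with host cell toxicity which is not excluded here; 0% = plate median of DMSO wells and 100% = zero luminescence signal; higher percent means less beta-gal luminescence so fewer parasites; stock transfer was 50 nL into about 50 µL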
Bfl-1 A1 inh: inhibitors of the anti-apoptotic protein A1, read as caspase activation. MEF A1-2A-BIM cells, Caspase-Glo 3/7 luminescence, 3 h; percent of clofoctol response, vehicle zero. caspase activation, % (no concentration beside the values). 330,000 compounds, 0.066% hits. AID 2462;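 active = over half of replicate activation scores above 10%, or exactly half above 10 with the replicate mean above 10; inconclusive = replicate mean below 10 yet half the replicates above 10; inactive = over half of replicates below 10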;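 note: wells of about 30 µL received 50 nL stock; many hits fall short of the cut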
Beta cell apopt: beta cell apoptosis inhibition | INS-1E cytokine-induced death, ATP luminescence, 48 h; percent of positive-control rescue, neutral wells zero | protection from apoptosis, % (test concentration not listed) | 300,000 compounds, 0.8% hits;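 active = all replicates at 75% or more, or half of them and the mean; inconclusive = half reach 75% but not the mean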;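 note: 0% = cytokine-treated negative control wells and 100% = positive control rescue; higher means more ATP so stronger rescue from cytokine killing; wells of about 40 µL received 100 nL stock; the first replicate is given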
AF4-AF9 inh: MLL-AF4/AF9 protein interaction inhibition; P42568; AlphaScreen, biotin-AF4 peptide binding to FLAG-AF9; inhibition, % at 10 µM; 350,000 compounds, 0.47% hits; AID 651704;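 active = every replicate reaching a set inhibition limit, whatever the replicate mean, cut at about 25% in these data; inconclusive = mean inhibition reaches that limit but some replicates miss it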;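 note: 0% = plate neutral control median and 100% = total signal loss; the record names both 10 and 1 µM as test concentration; the first replicate is given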
Target sequence (P42568 whole entry, looked up): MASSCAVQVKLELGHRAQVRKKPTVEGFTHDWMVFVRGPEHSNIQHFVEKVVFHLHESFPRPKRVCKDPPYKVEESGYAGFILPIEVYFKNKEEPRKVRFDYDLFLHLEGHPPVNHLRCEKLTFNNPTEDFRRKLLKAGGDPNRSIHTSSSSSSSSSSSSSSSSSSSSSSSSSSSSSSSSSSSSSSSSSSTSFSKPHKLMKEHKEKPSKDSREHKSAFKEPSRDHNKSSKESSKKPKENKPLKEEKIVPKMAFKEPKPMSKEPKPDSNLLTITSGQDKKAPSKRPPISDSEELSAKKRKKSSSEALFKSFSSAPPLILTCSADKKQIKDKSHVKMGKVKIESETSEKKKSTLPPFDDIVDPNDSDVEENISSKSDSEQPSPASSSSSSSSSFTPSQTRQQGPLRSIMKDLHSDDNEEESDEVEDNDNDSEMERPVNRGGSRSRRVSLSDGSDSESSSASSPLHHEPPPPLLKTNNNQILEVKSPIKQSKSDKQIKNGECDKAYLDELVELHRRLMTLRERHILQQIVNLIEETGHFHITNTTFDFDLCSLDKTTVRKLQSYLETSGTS
rRNA inh HTS: selective bacterial rRNA inhibition in E. coli | E. coli WT GFP vs humanized-ribosome RFP mutants, fluorescence, 24 h; stronger effect = lower value; DMSO median 0, no signal -100 | GFP signal change (wild-type ribosome), % (concentration not given with the values) | 350,000 compounds, 1.6% hits | AID 720706;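 active = significant combined selectivity score with lowered wild-type GFP, culture density cut under 30%, mutant RFP and density less affected; inactive = any of these conditions unmet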; note: one replicate is shown; some compounds called inactive have numbers as strong as hits
Calb FLC: C. albicans growth modulation with fluconazole; AID 1979; C. albicans CaCi-2 (fluconazole-resistant clinical isolate) + fluconazole, Alamar Blue growth, 48 h; growth inhibition, % (concentration not given with the values); 300,000 compounds, 0.57% hits;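 active = most replicates above 75%; inconclusive = exactly half above 75%; inactive = most below 75%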;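 note: all wells also contain fluconazole at 8 µg/ml as a sub-toxic cotreatment; 0% = median of DMSO wells and 100% = median of geldanamycin control wells; wells of about 8 µL received 7.5 nL stock; the first replicate is given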
rRNA inh HTS OD600: further read-out of rRNA inh HTS, marked with its call; OD600 change, %; measured here: OD600 growth;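 optical density of the mix in the first replicate; 0 = DMSO median and -100 = no signal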
rRNA inh HTS RFP: second read-out of rRNA inh HTS, no call of its own (marks repeat the call); RFP signal change, %; measured here: RFP humanized mutant strains;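 first replicate; 0 = DMSO median and -100 = no signal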
An asterisk follows results filed as active; ? = inconclusive; · = not tested or not shown; & = joins results of further samples. An excerpt (hit frequency here may not be typical).

SMILES	Vif A3G	RanGTP-Imp inh	T cruzi inh	Bfl-1 A1 inh	Beta cell apopt	AF4-AF9 inh	rRNA inh HTS	rRNA inh HTS OD600	rRNA inh HTS RFP	Calb FLC
Cc1ccc(C)c(OCCCC(=O)Nc2ccc(N3CCOCC3)cc2)c1	28%	1.2	-3	·	·	·	·	·	·	-15
COc1ccc(CN(CC(=O)NCC2CCCO2)C(=O)CNS(=O)(=O)c2ccccc2)cc1 (stereo unspecified)	·	-5.9	5	0.4	-5	7.2	1	3	-2.3	-16
CC1(C)Cc2nc3sc4c(N(CCO)CCO)nnnc4c3cc2CO1	?	-1.4	4	0.6	-10	-2.2	1	8	2.5	4
O=C(CN1CCCCC1)Nc1nc(-c2ccc(F)c(F)c2)cs1	·	2.9	4	1.4	5	-5.5	5	11	4.9	-8
COc1ccc(NC(=S)N(CCCN2CCOCC2)Cc2ccccn2)cc1	0%	-0.9	2	2.2	1	-0.9	2	1	0.8	-3
CN(C)c1nc(NCc2ccccc2)nc(SCC(=O)Nc2ccc(Cl)c(Cl)c2)n1	-4%	-1.2	55*	-0.1	1	·	·	·	·	-21
CC(=O)NC(=S)Nc1ccc(NC(=O)c2cccnc2)cc1	?	-1.2	-9	-0.5	-1	0.6	21	15	0.3	-9
Cc1cccc(-n2c(-c3ccncc3)n[nH]c2=S)c1C	-4%	-0.6	0	-0.5	-7	-2.1	1	15	-3.0	-2
CC1=CS(=O)(=O)CC1Sc1ncn[nH]1 (stereo unspecified)	19%	3.2	-3	-0.3	-3	·	·	·	·	-8
O=S(=O)(NCCc1csc(-c2cccnc2)n1)c1ccc2c(c1)OCCO2	2%	-0.6	-7	0.1	-14	-4.1	-3	-10	2.8	-12
COc1cc(OC)c(NC(=O)c2c(-c3ccccc3)noc2C)cc1Cl	3%	-4.3	16	0.5	5	·	·	·	·	-1
Cc1cc(NC(=O)C2CCN(S(=O)(=O)Cc3ccccc3)CC2)ccc1-n1cnnn1	11%	?	3	-0.7	-3	·	·	·	·	2
COc1cc(C2/C(=C(\O)c3ccc4c(c3)OCCO4)C(=O)C(=O)N2Cc2ccccc2)ccc1O (stereo unspecified)	·	6.1	-2	-0.6	-6	1.9	6	13	-0.6	1
Cc1nc2ccc(C(=O)OCc3nnc(-c4ccc(Br)cc4)o3)cc2nc1C	-25%	-0.9	3	0.1	0	-1.9	20	24	2.0	24
CC(Oc1ccc(Cl)cc1)C(=O)Nc1cccc(S(=O)(=O)N2CCOCC2)c1 (stereo unspecified)	2%	·	·	1.1	-4	1.0	·	·	·	·
CCC(=O)NCCc1nc2ccccc2n1Cc1ccccc1	-1%	2.0	-7	0.4	-1	·	·	·	·	-4
CCOc1cc2oc(=O)c3c(c2cc1Cl)CCC3	7%	-3.4	4	0.7	0	-0.4	·	·	·	7
Cc1cccc(C(=O)OCC(=O)Nc2c(C)nn(-c3ccccc3)c2C)c1O	-3%	0.4	-7	0.6	-3	?	15	14	-0.7	2
COc1cc2c(cc1OC)C(c1c(Cl)cccc1Cl)NC(=O)C2 (stereo unspecified)	·	2.1	18	0.6	·	-4.0	4	-1	-0.6	10
CC1=CC(C)(C)N2C(=O)C(=Nc3ccc(O)cc3)c3cccc1c32	3.5µM*	-1.8	12	0.1	5	18	-13	-8	27	-1
CNS(=O)(=O)c1ccc2c(c1)oc(=O)c1cc(S(=O)(=O)NC)ccc12	3%	1.3	-11	0.4	-4	-1.4	11	6	-2.0	7
COc1ccccc1NC(C)=[N+](C)CCNS(=O)(=O)c1ccc(Cl)cc1	4%	-2.5	11	0.4	4	1.5	10	11	3.7	-9
CO/N=C(\N)c1ccc([N+](=O)[O-])cc1	-4%	-1.4	4	0.6	-6	-1.9	-2	1	-1.5	-22
COc1ccccc1NC(=O)c1c(O)c2ccccc2[nH]c1=O	5%	-1.6	-1	-1.8	1	0.4	6	10	-0.3	0
COCCNC(=S)N(CCc1c(C)[nH]c2ccc(C)cc12)Cc1cccnc1	-9%	-5.7	34	0.3	-5	10	-20	-16	-1.7	·
CC1=CC(=O)C2=C(C)CC[C@@H]3[C@H](OC(=O)[C@H]3C)[C@@H]12	3%	-1.8	-3	-0.5	10	-0.5	5	1	-6.0	0
CCNS(=O)(=O)c1ccc(CCC(=O)N2CCN(Cc3ccccc3)CC2)cc1	·	2.5	12	-1.9	-5	-1.2	5	12	2.7	-13
COCCCNC(=O)CN(c1cc(Cl)ccc1OC)S(=O)(=O)c1ccc(C)c([N+](=O)[O-])c1	-12%	-1.8	13	0.4	-3	-1.4	16	20	0.6	10
COc1cccc(NC(=O)c2nc3nc(C)cc(C(F)F)n3n2)c1	10%	6.7	1	0.3	4	1.2	6	5	-1.4	8
O=C(O)c1ccc(S(=O)(=O)c2ccc3c(c2)C(=O)N(NC(=O)c2ccncc2)C3=O)cc1	12%	-0.8	-9	-0.4	-7	-14	6	6	2.3	7
CCCOC(=O)Cn1cnc2scc(-c3ccc(OC)cc3)c2c1=O	·	3.7	4	0.3	-5	-14	-3	-5	2.0	-21
COc1ccccc1OCCNC(=O)CCNC(=O)c1ccccc1OC	-9%	·	·	-0.7	-5	-8.4	-6	-7	-0.7	·
CSc1ccc(/C=N/Nc2nc(C)cc(=O)[nH]2)cc1	1%	0.1	-7	-2.8	4	0.0	-6	-8	-2.7	25
O=C(COC(=O)Cc1ccc(Cl)cc1)Nc1cc(S(=O)(=O)N2CCOCC2)ccc1N1CCCC1	-8%	0.0	-10	0.1	-9	0.1	·	·	·	-5
CC(C)(C)c1ccccc1NC(=S)NCc1ccccc1	6%	2.9	18	-0.4	5	·	·	·	·	-14
Cc1c(NC(=O)c2c(N)sc3c2CCCC3)c(=O)n(-c2ccccc2)n1C	?	-3.8	-3	0.9	0	-10.0	0	-4	1.4	-1
Cc1ccccc1C(=O)NC(=S)NCc1ccccc1	·	0.9	-2	0.1	-5	0.4	-19	-24	-13	4
CCOC(=O)C1CCN(S(=O)(=O)c2cccc(-c3cn4cc(C)ccc4n3)c2)CC1	-5%	0.6	-5	-0.6	-4	·	-2	4	-2.1	-1
O=C(Cc1ccc(N2CCNC2=O)cc1)N1CCCC(Nc2cccc(F)c2)C1 (stereo unspecified)	4%	4.7	-15	-0.1	22	-2.1	16	7	0.9	-5
O=C(COc1ccccc1[N+](=O)[O-])N(Cc1ccco1)C1CCS(=O)(=O)C1 (stereo unspecified)	-3%	6.1	-6	0.3	1	-1.3	3	8	-0.5	16
COC(=O)CN1C(=S)N(c2ccc(F)cc2)C(=O)C1CC(=O)Nc1ccc(F)cc1 (stereo unspecified)	13%	-2.2	-7	0.5	-12	0.9	-24*	-12*	-0.8*	7
COc1cc(NS(=O)(=O)c2ccc(NC(=O)/C(=C\c3ccccc3OC)NC(=O)c3ccccc3)cc2)nc(OC)n1	5%	0.2	-4	-0.1	-1	-0.1	-33	-60	-7.2	7
O=C(Nc1cccc(F)c1)NC1CCCCCCC1	·	·	·	1.1	8	-4.9	-32	-46	-10	-33
CC(=O)N1c2ccc(S(=O)(=O)N(C)Cc3ccco3)cc2CC1C (stereo unspecified)	·	0.6	-1	-0.3	-2	0.5	5	-3	8.4	2
COc1ccccc1C(=O)Nc1c2c(nn1-c1ccc(Cl)cc1)CS(=O)(=O)C2	·	1.7	-7	-0.1	-14	0.4	14	20	0.8	3
CC(=O)Nc1cc(C(=O)OCc2cccc([N+](=O)[O-])c2)ccc1C	-10%	1.0	12	-0.5	3	-0.6	2	1	-0.9	11
COCC(=O)Nc1cccc(C(F)(F)F)c1	19%	2.6	-16	0.6	-1	·	·	·	·	-1
O=C(Cn1c(=O)c2c(ncn2Cc2ccccc2)n(Cc2ccccc2)c1=O)NC1CC1	-2%	0.8	7	0.0	-2	·	·	·	·	-10
c1ccc(CCC2=NCCn3cccc32)cc1	9%&5%	11	17	-0.1	·	2.6	0	3	1.3	9
CCC(C)Nc1nc(N)c([N+](=O)[O-])c(Nc2cc(OC)ccc2OC)n1 (stereo unspecified)	17%	2.1	28	-0.8	1	25	-38	-36	-1.4	8
CCOc1ccccc1NC(=O)C1CC2CCCC(C1)C2=O (stereo unspecified)	-4%	5.6	-2	0.5	-6	·	·	·	·	4
CCCCn1c(CCNC(=O)c2cccs2)nc2ccccc21	-4%&33%	?	5	0.0	8	·	·	·	·	-9
Cc1cc(NC(=O)CSc2sc3c(O)cc(=O)[nH]c3c2C#N)ccc1Br	·	0.4	4	0.9	-5	-1.9	6	6	-0.3	8
CCN(CC(=O)N1CCc2ccccc2C1)S(=O)(=O)c1ccc2ccccc2c1	5%	-1.0	-5	-0.6	-8	·	·	·	·	3
CC1Cc2ccccc2N1c1ncnc(N)c1[N+](=O)[O-] (stereo unspecified)	-8%	-1.0	-5	0.5	-40	0.1	1	-1	-3.8	10
CCOC(=O)N1CCc2c(sc(N)c2C#N)C1	0%	-2.7	-4	-0.5	-4	-1.7	23	20	7.7	-5
Cc1ccc(-n2c(C)cc(/C=N/NC(=O)CN(c3ccc(C)cc3C)S(C)(=O)=O)c2C)cc1	20%	-2.0	8	-0.2	-19	·	·	·	·	-4
CN(C)c1nc2sc3c(c2c(=O)n1C)CC(C)(C)OC3	2%	-4.6	-13	0.4	-6	·	·	·	·	1
O=C(Nc1cccc2ccccc12)NC(Cc1ccccc1)C(=O)O (stereo unspecified)	-2%	-1.4	5	0.4	-3	-1.6	-4	-7	-1.4	4
COc1cccc(C2=NOC(C(=O)Nc3cccnc3Cl)C2)c1 (stereo unspecified)	5%	-2.3	-6	1.0	0	-2.2	11	0	1.3	0

The listing continues:
SMILES	Vif A3G	RanGTP-Imp inh	T cruzi inh	Bfl-1 A1 inh	Beta cell apopt	AF4-AF9 inh	rRNA inh HTS	rRNA inh HTS OD600	rRNA inh HTS RFP	Calb FLC
Cc1ccc(N=Nc2c(N)n(-c3ccccc3)[nH]c2=O)cc1	2%	1.8	-6	0.1	-7	·	·	·	·	-4
O=C(Nc1nc2ccc([N+](=O)[O-])cc2s1)C1CCCO1 (stereo unspecified)	-1%	4.7	28	-1.3	-9	0.3	7	13	2.0	-18
COc1ccc(OC)c(CNC(=O)C2CCCN(c3ncnc4c3nc3n4CCCCC3)C2)c1 (stereo unspecified)	·	-1.7	11	0.1	-3	2.3	-5	-11	0.5	-7
Cc1[nH]c(=O)[nH]c1CN1CCCCC1	10%	1.2	-13	·	·	·	·	·	·	-1
